Screens: PubChem, ICCB-Longwood Screening Facility, Harvard Medical School
KSHV LANA nucl = LANA-nucleosome interaction inhibition. FITC-LANA1-23 / chicken nucleosome fluorescence polarization; active compounds read low. z-score (no concentration beside the values). hit rate 0.3% among 51,000. AID 720717;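 active = both repeat wells score below -2 in polarization z-score versus plate sample wells, excluding overly bright wells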;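 also: 100 nL library stock added to about 30 µL; numbers are from one replicate; some results filed as inactive read as strong as hits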
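System – purified chicken nucleosomes with FITC-labelled LANA N-terminal peptide (1-23) · Amount – 240 nM purified chicken nucleosomes (480 nM peptide binding sites), final · Also added – 50 nM FITC-LANA1-23 probe · Medium – TEN-BT buffer, pH 7.5 · Incubation – compound with peptide–nucleosome mix 10–45 min at room temperature · Detection – fluorescence polarization, ex 480 nm, em 535 nm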
Ab BasE inh = inhibitors of Acinetobacter baumannii siderophore enzyme BasE. purified BasE, fluorescence polarization binding displacement. hit rate 0.1% among 84,000. inhibition, % (no concentration beside the values). AID 485350;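 active = both replicates above 25% with normal brightness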;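 also: 0% = negative plate control signal and 100% = positive plate control signal; stock transfer was 100 nL into about 30 µL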
Active calls of the source: *; . = not tested or not shown. Only part of the results is shown, so the mix of outcomes need not match the whole.

SMILES	KSHV LANA nucl	Ab BasE inh
O=S(=O)(NC1CC1)c1cccs1	-0.59	-0.5
Cc1ccc(S(=O)(=O)N2CCN(S(=O)(=O)c3ccc(C)cc3)C2)cc1	.	0.3
COc1cc(C(F)(F)F)cc(C(F)(F)F)c1C(=O)N1CCC(C(=O)c2ccc(Cl)cc2)CC1	.	1.4
CN(C(=S)NC(=O)c1ccccc1)c1ccc(OC(F)(F)F)cc1	.	2.6
FC(F)(F)c1cccc(-n2c(Cn3nnc(N4CCOCC4)n3)n[nH]c2=S)c1	.	0.3
CC1CCN(C(=O)C(C)NCc2ccc(F)cc2)CC1 (stereo not given)	-0.61	-0.8
CCOC(=O)c1c(NC(=O)c2cc(-n3cnnc3)ccc2Cl)sc2c1CCCC2	0.37	-6.7
CS(=O)(=O)N1Cc2ccccc2CC1C(=O)OCC(=O)Nc1ccc(OC(F)(F)F)cc1 (stereo not given)	.	-2.3
Cc1ccc(/C=C2\C(=O)N(c3ccccc3C)C(=O)c3ccccc32)o1	.	0.5
CCc1ccc(-c2nn(Cc3ccccc3)cc2CN2CCN(CC(=O)N3CCOCC3)CC2)cc1	.	-0.7
CC1CCC(N2CCN(Cc3cccc(F)c3)CC2)CC1 (stereo not given)	0.22	-2.5
CCCCC1(C)OC(=O)C(=Cc2ccc(O)cc2)C(=O)O1 (stereo not given)	-0.3	0.6
CC1Cc2ccccc2N1CC(=O)Nc1ccccc1Cl (stereo not given)	.	-0.4
Cc1cc(NC(=O)c2ccccc2F)cc(C)c1OCC(=O)N1CCOCC1	1.7	-5.0
O=C(CC12CC3CC(CC(C3)C1)C2)Nc1cccc(-c2nn3cnnc3s2)c1	.	0.4
COc1ccc(OCCn2cnc3ccccc32)cc1	-0.2	26*
COc1ccc(-c2cc(C(=O)NCCN3CCCCCC3)[nH]n2)cc1	-1.6	-13
CCCCN1CCc2c([nH]c3c(C)cccc23)C1=O	.	-0.1
c1ccc(CN2CCC(=NNc3nncc4ccccc34)CC2)cc1	.	1.1
COc1cc(Br)cc2cc(-c3nc(-c4nonc4N)no3)c(=O)oc12	1.8	-2.4
CC(C)Oc1ccc(-c2nn(-c3ccccc3)cc2/C=C(\C#N)S(=O)(=O)c2ccccc2)cc1	.	2.1
CCS(=O)(=O)N1Cc2ccccc2CC1C(=O)N1CCN(S(=O)(=O)c2ccc(C)cc2)CC1 (stereo not given)	.	-3.8
N#Cc1c(=O)c2nc(NCCc3ccccc3)ncc2n2c(=O)c3cc(Br)ccc3[nH]c12	.	-1.4
COc1cccc(/C=C2/SC(=O)N(C)C2=O)c1O	0.017	3.5
Cc1c(NS(=O)(=O)c2cccc(C(=O)N3CCN(c4ccccc4F)CC3)c2)c(=O)n(-c2ccccc2)n1C	.	0.9
CCC(C)/C(=N\O)c1ccccc1 (stereo not given)	-0.089	2.9
CNS(=O)(=O)c1ccc2oc3ccc(S(=O)(=O)NC)cc3c2c1	.	1.9
C=CCNC(=O)c1cc2c(=O)n3ccccc3nc2s1	.	2.6
COc1cc(-c2nnc(SCc3cc(=O)oc4ccc5ccccc5c34)o2)cc(OC)c1OC	.	1.8
COC(=O)c1ccc(-c2nc3ccccc3[nH]2)cc1	.	-5.5
N#CC1=C(SCC(N)=O)NC2=C(C(=O)CCC2)C1c1ccco1 (stereo not given)	0.28	3.0
Clc1ccc(Nc2ncnc3c2cnn3-c2ccccc2)cc1	.	-1.5
CCCc1nc(C(C#N)c2ccc(F)cc2)c2nnn(Cc3ccccc3)c2n1 (stereo not given)	-0.015	1.7
Cc1[nH]c2ccccc2c1CN1CCN(c2ccc(F)cc2)CC1	0.0005	.
O=c1oc2ccc(Cl)cc2c(=O)n1-c1cccc(C(F)(F)F)c1	.	0.3
CC1=C(C(=O)Nc2ccc(CC(=O)NCc3ccc4c(c3)OCO4)cc2)SCCO1	0.16	-1.5
O=C(Cn1cnc2c(oc3ccccc32)c1=O)NCCc1ccccc1	.	2.4
Cc1noc(C)c1COc1cccc(C(=O)N2CCCSC2=Nc2ccccc2)c1	.	-9.9
CC(C)(C)OC(=O)NC1CCN(S(=O)(=O)c2ccc(OC(F)(F)F)cc2)CC1	-0.38	0.6
Cc1onc(-c2ccccc2)c1C(=O)N1CCN(C(=O)C2COc3ccccc3O2)CC1 (stereo not given)	1.5	-2.0
CN(C)c1ccc(/C=N/NC(=S)NC(C)(C)C)cc1	-1.2	3.2
Cc1ccc2cc(CN(CC3CCCO3)C(=O)C3CCC3)c3nnnn3c2c1 (stereo not given)	0.078	0.0
CCOC(=O)/C(C#N)=C\c1ccc(Br)s1	-0.37	-4.5
CCn1nc(CCC(=O)O)c2ccccc2c1=O	-0.54	0.8
N#Cc1ccc(OCc2nnc3n2CCC3)cc1	.	3.3
CCN(CC1COc2ccccc2O1)S(=O)(=O)c1ccc(C)cc1 (stereo not given)	0.45	0.8
CC(C)c1c(O)nc(SCCN2CCOCC2)[nH]c1=O	0.72	-1.8
O=C(NCC1CC1)Nc1c[nH]c2ccccc2c1=O	1.2	1.1

Part of the list above, reformatted:
CN(C)c1ccc(/C=N/NC(=S)NC(C)(C)C)cc1
  KSHV LANA nucl: -1.2
  Ab BasE inh: 3.2

Cc1ccc2cc(CN(CC3CCCO3)C(=O)C3CCC3)c3nnnn3c2c1 (stereo not given)
  KSHV LANA nucl: 0.078
  Ab BasE inh: 0.0

CCOC(=O)/C(C#N)=C\c1ccc(Br)s1
  KSHV LANA nucl: -0.37
  Ab BasE inh: -4.5

CCn1nc(CCC(=O)O)c2ccccc2c1=O
  KSHV LANA nucl: -0.54
  Ab BasE inh: 0.8

Remaining list, next part
SMILES	KSHV LANA nucl	Ab BasE inh
O=C1CCCc2nc3nc(-c4ccncc4)nn3cc21	-0.95	0.6
Cc1c(C(=O)OCC(=O)N2CCCC2)oc2ccccc12	.	1.6
O=C(OCC(=O)N1CCOCC1)c1ccc(Cl)c(S(=O)(=O)N2CCCC2)c1	.	2.5
C#CCNc1cc(Cl)ccc1Cl	0.4	-0.5
CS(=O)(=O)Nc1nnc(SCCCc2ccccc2)s1	-0.92	3.8
O=C(CNc1ccccc1N1CCCCC1)N1CCc2ccccc21	.	-1.2
CSc1nnc2c(n1)[nH]c1ccccc12	0.79	1.0
COC(=O)NC(O)C(=O)c1ccccc1 (stereo not given)	-0.46	1.3
COc1cccc(C2NC(=O)NC(C)=C2C(=O)c2ccccc2)c1 (stereo not given)	.	0.4
CCC(Sc1nc2ccncc2[nH]1)C(=O)N(CC)c1ccccc1 (stereo not given)	-0.75	4.3
COc1c2c(nc3ccccc13)OC(C(C)(O)COC(C)=O)C2 (stereo not given)	0.67	-0.8
COc1ccc(NC(=O)c2cccc(S(=O)(=O)N3CCN(C)CC3)c2)c(OC)c1	.	-0.3
COc1ccc(-c2csc(-c3cccs3)n2)cc1OC	.	0.5
C=CCn1c(O)c(C2=c3ccccc3=NC2=O)c2ccccc21	-0.22	0.2
CC(=C1C(=O)c2ccccc2C1=O)N1CCN(CCN=CC2=C(O)CC(c3ccc(C)cc3)CC2=O)CC1 (stereo not given)	0.43	-3.2
O=C(Nc1cccc(C(=O)N2CCCC2)c1)C1=CSCCO1	-0.9	1.1
CC1Cc2cc(S(=O)(=O)Nc3ccc(F)cc3)ccc2N1C(=O)C1CCC1 (stereo not given)	-2.2	0.5
Cc1cc(C)nc(NCCS)n1	-0.87	-0.8
CCc1c(C(=O)NCc2cnn(C)c2)csc1C	0.8	-2.3
Cc1cccc(C(=O)N(C(=O)c2cccc(C)c2)c2nnnn2C)c1	-0.74	0.4
COC(=O)c1ccc(C=Nc2ccc3oc(-c4cccc(OC)c4)nc3c2)cc1	.	3.4
N#Cc1c(NC(=O)/C=C/c2ccco2)sc2c1CCCC2	.	-2.6
O=C(NNc1nc2ccccc2o1)c1cccc(Cl)c1	.	2.6
N#Cc1c(/N=C/c2ccc3c(c2)OCO3)oc(-c2ccccc2)c1-c1ccccc1	-0.58	3.9
C=CCc1c(CCC)nc(SCC2CC2)[nH]c1=O	.	3.0
CC(C)(C)c1cc(NC(=O)COC(=O)C2CC2)n(-c2ccccc2)n1	.	-0.7
Cc1sc2nc3c4ccccc4c(NCC4CCCO4)nn3c(=O)c2c1C (stereo not given)	.	-2.3
OCCn1c(SCc2ccccc2)nc2ccccc21	0.43	1.4
COC(=O)C(Cc1ccccc1)N=Cc1c(O)[nH]c(=O)[nH]c1=O (stereo not given)	.	0.6
CN(CC(=O)NCCc1ccc(S(N)(=O)=O)cc1)c1ccccc1	.	1.0
Nc1ccccc1C(=O)NCCc1ccncc1	.	-0.4
CC(C)(C)NC(=O)CN1CCC(n2nnc3cc(F)ccc32)CC1	-0.64	4.5
COc1ccc(CN(C(=O)c2cc3sccc3n2C)C2CC(C)(C)NC(C)(C)C2)cc1	-0.088	-1.1
N#CCCn1cc(/C=C2\N=C(c3ccccc3)OC2=O)c(-c2ccc(F)cc2)n1	.	2.0
CCC(C)NC(=O)C1CCN(Cc2nc(-c3ccc(OC)c(OC)c3)no2)CC1 (stereo not given)	.	-2.1
C=CCNC(=O)C1CCN(S(=O)(=O)c2cccc3nsnc23)CC1	.	1.8

Sorted by molecular weight (highest first): part of the list above
SMILES	KSHV LANA nucl	Ab BasE inh
CNS(=O)(=O)c1ccc2oc3ccc(S(=O)(=O)NC)cc3c2c1	.	1.9
Cc1ccc(/C=C2\C(=O)N(c3ccccc3C)C(=O)c3ccccc32)o1	.	0.5
N#CC1=C(SCC(N)=O)NC2=C(C(=O)CCC2)C1c1ccco1 (stereo not given)	0.28	3.0
COc1cccc(/C=C2/SC(=O)N(C)C2=O)c1O	0.017	3.5
O=C(NCC1CC1)Nc1c[nH]c2ccccc2c1=O	1.2	1.1

(listing goes on)
SMILES	KSHV LANA nucl	Ab BasE inh
COC(=O)CSc1nnc2n(Cc3ccc(C)cc3)c(=O)c3ccccc3n12	.	0.1
Cc1ccccc1CN1C=C(C(N)=O)C(C(F)(F)F)CC1 (stereo not given)	-1.4	0.5
CC(=O)Nc1ccc(O[C@@H]2O[C@H](CO)[C@@H](O)[C@H](O)[C@H]2NC(C)=O)cc1	-0.084	-1.4
CC(C)CNC(=O)c1cc(-c2ccc(Br)cc2)on1	-0.74	1.8
FC(F)(F)c1cc(NCc2ccccc2)nc(-c2ccccn2)n1	0.019	.
CN(C)C(=O)N(C)C1CCS(=O)(=O)C1 (stereo not given)	-1.5	-1.0
Cc1cc(C(=O)CN(Cc2ccco2)S(=O)(=O)/C=C/c2ccccc2)c(C)n1C	.	2.9
COC(=O)c1c(NC(=O)CC2Nc3cc(C)c(C)cc3NC2=O)sc(C)c1C (stereo not given)	.	2.6
CCC1CCCCN1c1cc(C)nc2cc(-c3cc(OC)cc(OC)c3)nn12 (stereo not given)	-1	-0.9
CCc1ccc(NC(=O)CCCN2C(=O)CCC2=O)cc1	-0.26	-1.0
O=CN/N=C/c1c(O)ccc2ccccc12	.	6.5
CC1(C)COC(N2c3ccccc3Sc3ccccc32)=N1	.	4.9
CCOC(=O)c1[nH]c(=O)[nH]c1CNc1ccccc1C#N	-0.3	-2.8
CCCCc1nnc(SCC(=O)N2CCc3ccccc32)n1C	-0.59	2.4
COCCn1c(N)c(-c2nc3ccccc3[nH]2)c(O)c1N=Nc1cc(OC)c(OC)c(OC)c1	.	0.9
O=C(Cc1ccc2c(c1)OCCO2)Nc1ccc(OC(F)(F)F)cc1	.	1.1
Cn1c(=O)c(-[n+]2ccccc2)c([O-])c2ccccc21	-0.76	1.5
O=C(Nc1ccc(Cl)cc1)C(F)(F)F	.	-1.0
O=C1CCC2(C(=O)O)Sc3ccccc3N12 (stereo not given)	-0.51	-0.2
Cc1ccc(N(C(=O)Cn2nnc3ccccc32)C(C(=O)NCc2ccco2)c2cccnc2)cc1C (stereo not given)	0.33	-2.0
CCn1c(SCC(=O)N(C)Cc2ccccc2)nc2ccccc21	.	-0.3
COc1cc(SC)ccc1C(=O)NCC#N	0.32	-0.5
O=C(O)CCC(=O)NC1CCCCNC1=O (stereo not given)	.	1.1
Cn1ccnc1SCC(=O)NC1CCCc2ccccc21 (stereo not given)	.	2.8

Complete entries, looked up by structure:
O=C(CC12CC3CC(CC(C3)C1)C2)Nc1cccc(-c2nn3cnnc3s2)c1 in the list: KSHV LANA nucl = .; Ab BasE inh = 0.4
CCc1c(C(=O)NCc2cnn(C)c2)csc1C in the list: KSHV LANA nucl = 0.8; Ab BasE inh = -2.3

(more compounds)
SMILES	KSHV LANA nucl	Ab BasE inh
Cc1ccc2c(CC(=O)NCC(=O)OCc3ccccc3)coc2c1	.	1.0
CN(C)C(=O)COC(=O)c1ccccc1C(=O)c1ccccc1	.	1.0
Cc1c(C(=O)c2ccc3c(c2)OCCO3)oc2ccc(Cl)cc12	.	0.4
C(=C\c1ccccc1)/C=N/N1CCN(Cc2cccc3ccccc23)CC1	.	2.5
Cc1cc(C)n2nc(SCC(=O)N3CCC(C)CC3)nc2n1	.	0.8
COc1ccc(CSc2nc(O)cc(=O)n2CC(C)C)cc1F	.	-4.6
O=C1O/C(=C\C=C\c2ccccc2)c2ccccc21	-0.6	.
O=C(Cn1cc(/C=C2\SC(=Nc3ccccc3)N(Cc3ccco3)C2=O)c2ccccc21)N1CCOCC1	0.88	-0.8
Cc1cc(C)c(C#N)c(SCc2nc(COc3cccc(C(F)(F)F)c3)no2)n1	.	-0.2
CCCCN(CC)Cc1c(O)ccc2c(-c3ccccc3)cc(=O)oc12	0.24	-1.2
